gsp antag = qHTS for Antagonists of gsp, the Etiologic Mutation Responsible for Fibrous Dysplasia/McCune-Albright Syndrome: qHTS. actives 0.4% (n = 340,000). gsp-mutant cells, cAMP HTRF, 30 min; control for the full effect not named in the record. Potency, µM (titrated, usually from 76.9 µM), for the others: top-dose activity change, negative = inhibition, actives largely listed as inhibitors; active = falling curve of any shape with a large fitted effect; inconclusive = falling curve, mostly with a smaller effect; inactive = flat or rising curve; cell line not stated here;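 further: intracellular cAMP measured with PDE inhibitor Ro 20-1724 present during compound exposure; potency means the concentration at half of the fitted maximal effect; on the % scale 0 is the no-effect control and ±100 the full control effect; nearly all actives have a fitted effect of over 65% in size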
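Measurement of cellular cAMP by homogeneous time-resolved fluorescence following a 30 min compound exposure at 37C. The PDE inhibitor […] was present throughout; the assay buffer was DPBS with 0.05% BSA and 0.005% Tween 20.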
D2 agonist = Beta-Arrestin HTS for Positive Allosteric Modulators of the Human D2 Dopamine Receptor: Agonists; DiscoveRx PathHunter D2 beta-arrestin, luminescence, 90 min; 100% = 57 uM dopamine signal; actives 0.084% (n = 360,000); activation, % (concentration not given with the values); AID 624465, 2012; D(2) dopamine receptor (Homo sapiens), P14416; in the data active = activation above about 40%; inconclusive = about 15% to 40%; inactive = below about 15%; further: compound concentration not given in the record; the text of the record calls up to 30% inactive
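Agonist mode: compounds alone added to overnight-plated D2 PathHunter cells for 90 min at 37 C, with 57 uM final dopamine (EC100) defining full response. Beta-arrestin recruitment detected by chemiluminescent reagent, read after 1 h at ambient temperature.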
Six1-Eya2 blk = qHTS Assay for Inhibitors of the Six1/Eya2 Interaction. Homeobox protein SIX1 (Homo sapiens) + Protein phosphatase EYA2 (Homo sapiens), …. actives 0.56% (n = 360,000). AlphaScreen GST-Six1/His-Eya2 binding, biochemical; hits give low values; control for the full effect not named in the record. activity change, % (test concentration not listed); in the data active = activity change below about -65%; inconclusive = about -30% to -65%; inactive = above about -30%; further: on the % scale 0 is the no-effect control and ±100 the full control effect; compound concentration not given in the record
Target sequence (O00167 whole entry, looked up): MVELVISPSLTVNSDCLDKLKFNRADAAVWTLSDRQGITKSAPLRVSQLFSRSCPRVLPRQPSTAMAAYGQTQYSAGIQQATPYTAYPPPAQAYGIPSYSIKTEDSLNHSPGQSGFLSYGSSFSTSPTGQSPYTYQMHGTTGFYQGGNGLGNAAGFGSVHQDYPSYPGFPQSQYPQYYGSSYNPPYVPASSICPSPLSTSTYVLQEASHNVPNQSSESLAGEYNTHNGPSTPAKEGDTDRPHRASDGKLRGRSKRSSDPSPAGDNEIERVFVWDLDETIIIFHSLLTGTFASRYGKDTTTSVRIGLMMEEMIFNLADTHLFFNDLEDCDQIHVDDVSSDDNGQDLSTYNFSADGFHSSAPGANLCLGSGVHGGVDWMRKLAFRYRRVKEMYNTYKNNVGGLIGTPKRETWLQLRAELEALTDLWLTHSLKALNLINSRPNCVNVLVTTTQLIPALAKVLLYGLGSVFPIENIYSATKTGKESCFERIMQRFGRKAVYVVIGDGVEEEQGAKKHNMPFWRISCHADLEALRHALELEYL
Target sequence (Q15475 whole entry, looked up): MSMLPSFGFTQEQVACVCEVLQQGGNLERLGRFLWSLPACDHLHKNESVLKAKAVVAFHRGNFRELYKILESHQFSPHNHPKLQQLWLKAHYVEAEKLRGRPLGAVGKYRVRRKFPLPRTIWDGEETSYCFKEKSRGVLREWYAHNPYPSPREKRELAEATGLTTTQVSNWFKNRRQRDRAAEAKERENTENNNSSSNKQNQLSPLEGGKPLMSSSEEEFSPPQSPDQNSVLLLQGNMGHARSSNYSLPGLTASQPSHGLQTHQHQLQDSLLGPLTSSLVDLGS
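Six1/Eya2 binding was read as AlphaScreen signal after compounds were pinned into GST-Six1 plus His-tagged Eya2 (5X stock 250/500 nM) in pH 8.0 Tris/NaCl/TCEP buffer, beads added, then incubated 1 h, 37 C, dark.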
gsp agonist = qHTS for Agonist of gsp, the Etiologic Mutation Responsible for Fibrous Dysplasia/McCune-Albright Syndrome: qHTS. gsp mutant cells, cAMP HTRF, 30 min; control for the full effect not named in the record. Potency, µM (series often up to 76.9 µM), inactives show at the top dose activation (cAMP increase), most hits filed as activators. actives 0.13% (n = 340,000). AID 624287, 2012; active = well fitted activation curve with a large enough effect; inconclusive = small, poorly fitted or top-dose-only effect, or another doubt; inactive = no such curve, though single readings can be large or run the other way; cell line not stated here;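 further: phosphodiesterase inhibitor Ro 20-1724 added with compounds to block cAMP breakdown; potency means the concentration at half of the fitted maximal effect; nearly all actives have a fitted effect of over 60% in size; about a fifth of the inactives were tested at one dose only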
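Cells in DMEM/10% FBS with G418 were pretreated with compounds in DMSO plus […] (300 uM stock) for 30 min at 37C. cAMP was measured by HTRF (cAMP-d2 plus anti-cAMP antibody-K) after 30 min at room temperature.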
D2 potentiator = Beta-Arrestin HTS for Positive Allosteric Modulators of the Human D2 Dopamine Receptor: Potentiators | potentiation, % (no concentration beside the values) | AID 624464, 2012 | DiscoveRx D2 beta-arrestin cells, luminescence, 90 min; 100% = 57 uM dopamine signal | D(2) dopamine receptor (Homo sapiens), P14416 | actives 0.23% (n = 360,000); active = potentiation of 50% or more; inconclusive = 30% to 50%; inactive = 30% or less;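 further: compound concentration not given in the record; tested on top of an EC20 dose of dopamine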
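PathHunter beta-arrestin assay in DiscoveRx D2 cells. Compounds were added with an EC20 of dopamine (50 nM final) for 90 min at 37 deg C. Luminescence was read 1 h after detection reagent, with 57 uM dopamine as the EC100 control.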
CtBP-E1A blk = qHTS Assay for Inhibitors of the CtBP/E1A Interaction | CtBP / adenovirus E1A interaction (AlphaScreen) | AlphaScreen GST-E1A/His-CtBP binding, 1536-well; hits give low values; control for the full effect not named in the record | activity change, % (no concentration beside the values) | actives 0.49% (n = 340,000) | AID 651724, 2012; in the data active means activity change below about -65%; inconclusive means about -30% to -65%; inactive means above about -30%; further: on the % scale 0 is the no-effect control and ±100 the full control effect; compound concentration not given in the record
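Steps: dispense buffer (Tris pH 8.0, NaCl 300 mM, TCEP 1 mM, BSA, Tween 20); add 5X protein mix (GST-E1A, His-CtBP, 125 nM each); pin 23 nL compound; 2 h at 37 °C, dark; add 5X beads (50 ug/mL); 1 h; read.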
* hit, by the source's call; ? = inconclusive; . = no result given; [ ] = dose if it differs, or a comment.

gsp antag	D2 agonist	Six1-Eya2 blk	gsp agonist	D2 potentiator	CtBP-E1A blk	SMILES
.	-5.7	0.1	.	-2.0	-2.3	CCOC(=O)C1=CCN(S(=O)(=O)c2ccccc2Cl)C1c1ccc(Cl)c(Cl)c1 (stereo not given)
4.6%	-1.3	-2.4	-4.5%[15.4 µM]	1.2	3.6	CCOc1ccccc1NC(=O)COC(=O)COc1c(Cl)cc(Cl)c2ccc(C)nc12
-9.1%	0.7	4.4	27.3%[15.4 µM]	-16.0	0.0	COc1ccccc1C(C)NCC(=O)NCc1ccc(C)cc1 (stereo not given)
7.6%	0.5	7.1	11.8%	-1.8	6.8	C/C(N)=C(/C#N)C(=O)COC(=O)c1cc(-c2ccc(C)cc2)nc2ccccc12
16.7%	-3.7	-21.8	9.3%	-29.9	0.0	COc1ccc(S(=O)(=O)NCCCN2CCCC2=O)cc1OC
-5.3%	-3.6	-7.3	23.8%	4.3	-6.5	CCN(CC)S(=O)(=O)c1cc(NC(=O)COC(=O)c2ccc(NC(=O)CC#N)cc2)ccc1C
5.8%	-2.7	5.2	?	-4.1	12.8	O=C(NCCc1ccccc1)c1nccc2ccccc12
10.2%	-4.5	-3.5	5.3%	-0.5	-4.2	Cc1noc(C)c1C(=O)Nc1ccccc1N1CCOCC1
6.7%	0.4	0.5	-28.2%	-8.7	.	CCOC(=O)c1c(C)[nH]c(C)c1S(=O)(=O)N(C)CC(=O)Nc1ccccc1C
.	-4.1	0.0	.	-8.3	1.1	CCOC(=O)C1=CC[C@@H](c2ccccc2)N(S(=O)(=O)c2ccc(C)cc2)[C@H]1c1ccccc1C
-13.6%	-1.6	-1.2	?	5.3	4.8	CCOC(=O)c1ccccc1OCc1cc(/C=N/n2cncn2)ccc1OC
-4.4%	-4.0	-6.9	12.4%	-15.5	-18.9	COC(=O)c1c(NC(=O)CSc2nccn2C)sc(C)c1C
10.6%	-2.4	2.2	17.9%[15.4 µM]	-10.4	-3.9	CSC1=C(C#N)C(=O)NC(c2ccc(Cl)cc2)S1 (stereo not given)
-2.2%	-1.0	-9.7	?	-24.3	.	COc1ccccc1/C=C/C(=O)NC(=S)Nc1ccccn1
4.0%	-2.1	2.6	18.1%	-1.1	0.7	CCN1CCN(CCCNC(=O)C2c3ccccc3C(=O)N(c3ccc(OC)cc3)C2c2ccc(OC)cc2)CC1 (stereo not given)
0.3%	-1.2	-7.2	-33.6%[inhibitor]	-7.3	5.2	CSCCC(NS(=O)(=O)c1ccc(C)cc1)C(=O)NNC(=O)c1csc(N2CCOCC2)n1 (stereo not given)
?	8.2	-5.0	-23.1%	-8.1	1.7	C/C(=N\NC(=O)c1ccc(N/N=C(\C)c2ccc(O)cc2)cc1)c1ccc(O)cc1
13.0%	13.9	-11.9	-19.9%[15.4 µM]	-8.9	-0.6	CCCOc1ccc(C(=O)Nc2ccc(CN3CCOCC3)cc2)cc1
-57.5%	-5.0	0.9	-8.9%[15.4 µM]	-5.2	-3.0	O=C(CN1CCOCC1)n1c2c(c3ccccc31)CCCC2
3.7%	-2.5	6.5	0.1%	-6.2	0.0	NC(=O)C1(N2CCCCC2)CCN(C(=S)Nc2cc(F)cc(F)c2)CC1
-6.1%	-2.8	0.0	.	-10.7	-7.0	NC(=O)CC(NC(=O)c1cccc(Br)c1)c1ccc(NC2CCC2)c([N+](=O)[O-])c1 (stereo not given)
8.1%	-2.0	2.2	-13.9%	-10.8	-2.6	O=C(Nc1ccccc1)OCCc1ccccn1
-5.0%	-1.5	-1.4	20.6%	4.6	3.1	Cc1ccc[n+](CC(=O)Nc2ccc([N+](=O)[O-])cc2Cl)c1
16.4%	-0.4	4.2	31.5%	-2.2	10.9	COc1ccc(CN2C3CCC2CC(NC(=O)c2cccc(F)c2)C3)cc1 (stereo not given)
?	-0.6	-4.0	33.8%	-5.3	0.6	COc1cc(C(=O)Nc2scc(-c3ccc(Br)cc3)c2C(=O)O)cc(OC)c1OC
-26.8%	-7.2	-85.2*	10.4%[15.4 µM]	-8.0	7.3	Cc1onc(-c2ccccc2)c1C(=O)NC(=S)NNC(=O)c1ccccc1O
2.6%	0.6	-1.2	2.7%	-10.6	.	O=C(Nc1ccc(O)c(C(=O)O)c1)Oc1ccccc1
12.4%	-0.7	2.1	0.0%	1.4	-2.0	Cc1c(C(=O)NCc2ccccc2)cnn1-c1ccccc1
-1.5%	0.1	2.0	-43.4%[inhibitor]	-7.8	3.1	COC(=O)c1[nH]c2ccccc2c1NS(=O)(=O)c1ccc(OC)cc1OC
2.4%	0.3	5.6	8.5%	-12.3	-12.3	Cc1ccc(C)c(NC(=O)CC2Sc3ccccc3NC2=O)c1 (stereo not given)
17.0%	0.9	-7.6	6.7%	-4.1	-14.7	COc1cc2[nH]c(=S)n(C3CCCC3)c(=O)c2cc1OC
-5.6%	2.0	-4.6	-11.4%	-4.8	.	CC(C)c1ccc(N(CC(=O)NC(C)(C)C)C(=O)CCC(=O)Nc2nccs2)cc1
-14.6%	-5.5	-10.9	0.4%	-18.6	3.6	COc1c(O)ccc(/C=C(\C#N)c2nc3ccccc3[nH]2)c1[N+](=O)[O-]
-19.0%	1.2	?	7.4%	-2.7	?	COCCNC(=O)c1cc2c(-c3ccc(Cl)cc3)nn(C)c2s1
-1.6%	-1.2	-6.0	12.7%	2.2	-0.2	CC(C)OCCCNC(=O)c1cc(S(=O)(=O)N2CCc3ccccc32)cn1C
-8.7%	-3.0	-5.5	7.1%[15.4 µM]	-4.9	-0.3	CCOc1cc(N2CCOCC2)c(OCC)cc1NC(=O)COC(=O)COc1cc(C)cc(C)c1
-13.4%	7.8	-0.8	?	-2.4	.	Cc1cccc(-c2nc3ccccc3c(=O)n2NC(=O)Cc2ccc(Cl)cc2)c1
7.9%	-1.0	-20.1	-87.2%[inhibitor]	-2.0	-20.7	CN1CCN(/N=C/c2cccc(Cl)c2Cl)CC1
4.6%	-4.0	-0.9	3.2%	-44.1	8.0	O=C(NCCCN1CCCCCC1)c1ccc2c(c1)NC(=O)C(N1CCOCC1)S2 (stereo not given)
-3.5%	-1.4	-13.7	-5.7%	-16.2	?	CN1CCc2nc(SCC(=O)Nc3cccc(F)c3)c(C#N)c(-c3cccs3)c2C1
6.2%	-4.1	7.0	-3.7%	-3.2	-18.6	CCCCn1c(N)c(N(CCC(C)C)C(=O)C2=COCCO2)c(=O)[nH]c1=O
24.1%	-11.7	15.5	-60.6%[inhibitor][15.4 µM]	-28.5	-2.5	Cc1ccc2c(c1)C(=O)C(=O)N2CC1COc2ccccc2O1 (stereo not given)
.	-5.8	7.4	.	-3.5	11.4	C[C@@]12C(C[C@H](O)[C@@]34C[C@@H](CCC13)[C@@H](CO)C4=O)[C@](C)(C(=O)O)CC[C@@H]2O (stereo not given in full)
2.1%	-1.3	-6.2	-1.9%	-20.4	3.9	Cc1ccccc1N1CCN(Cc2ccc([N+](=O)[O-])o2)CC1
4.6%	3.1	4.7	-11.3%	-1.0	4.3	O=C(NCc1n[nH]c(=S)n1-c1ccc(F)cc1)c1ccc(S(=O)(=O)N2CCCC2)cc1
-20.4%	-3.9	-8.9	-16.4%	2.3	-3.5	O=C(Cc1ccccc1)Nc1nonc1NC(=O)c1ccccc1
-20.4%	-8.8	-10.9	11.0%	-6.1	.	O=C(NC(=S)Nc1ccccc1[N+](=O)[O-])c1cncc(Br)c1
6.4%	3.0	17.0	-14.4%	-14.6	-24.9	COc1ccc(C(=O)NCCS(=O)(=O)N2CCc3ccccc3C2)cc1
2.9%	-2.1	75.5	0.7%	-8.6	129.9	c1csc(-c2noc(COc3ccc4c(c3)CCCC4)n2)c1
-7.0%	-0.9	0.3	-12.1%	-13.6	1.0	CCOC(=O)C1=C(CC)OC(N)=C(C#N)C1c1ccc(OC)c(C)c1OC (stereo not given)
-13.2%	-1.5	2.9	?	6.6	6.2	Cc1cccn2c(NC(=O)c3ccccc3F)c(-c3ccccc3)nc12
-12.3%	-5.8	-3.2	14.7%[15.4 µM]	-1.4	2.5	CCOC(=O)c1cnc2c(c(C)nn2C)c1Oc1cc(Cl)cc(Cl)c1
5.4%	-1.8	-12.7	-7.1%	-6.8	-17.6	CNC(=S)N(CCc1cccc(C)c1)Cc1cc2cc(OC)c(OC)cc2[nH]c1=O
3.1%	-4.0	-3.2	1.4%	0.6	-22.0	O=C(N/N=C\c1ccoc1)c1ccco1
-9.2%	3.8	-1.0	20.9%	7.6	-2.1	CCOC(=O)C1CCN(C(=O)Cc2c(C(=O)O)n(C)c3ccccc23)CC1
?	-3.0	-2.8	9.1%	-13.7	-0.1	CCN(c1ccc(OC)cc1)S(=O)(=O)c1ccc2c(c1)CC(C)N2C(=O)C1CC1 (stereo not given)
-13.5%	-3.7	0.0	.	-3.2	-0.4	CC(=O)[C@H]1CC[C@H]2[C@@H]3C=CC4=CC(=O)CC[C@@]4(C)[C@@H]3CC[C@]12C
-3.7%	1.2	14.5	-2.1%	0.0	-2.7	CCC(C)C(=O)Nc1c2c(nc3c1CCC3)CCCC2 (stereo not given)
1.4%	-3.7	-7.0	-30.8%	-5.1	10.9	Cc1c(C(=O)NCc2n[nH]c(=S)n2-c2ccc(F)cc2)cccc1[N+](=O)[O-]
-8.2%	3.3	-9.8	6.1%[15.4 µM]	-6.4	-7.9	COc1cc(/C=N/NS(=O)(=O)c2ccc3ccccc3c2)ccc1OCCN1CCOCC1
-2.0%	-1.7	0.1	9.9%	-1.7	6.5	O=C(NCCNC(=O)c1ccco1)c1cccc(F)c1
.	-2.4	0.9	.	-11.9	3.4	CCc1nc2ccc(C(=O)NCc3ccccc3OC)cn2c1N(CC)CCN(C)C

One compound at a time, from the list above. Order of values: gsp antag | D2 agonist | Six1-Eya2 blk | gsp agonist | D2 potentiator | CtBP-E1A blk
Listed for `CCN(c1ccc(OC)cc1)S(=O)(=O)c1ccc2c(c1)CC(C)N2C(=O)C1CC1` (stereo not given) : ? | -3.0 | -2.8 | 9.1% | -13.7 | -0.1
Listed for `CCC(C)C(=O)Nc1c2c(nc3c1CCC3)CCCC2` (stereo not given) : -3.7% | 1.2 | 14.5 | -2.1% | 0.0 | -2.7

The order is random; 1.4% or so of the library scored in one or more.
